Screening data as filed in PubChem BioAssay.
GIRK2 act – activators of human GIRK2 potassium channels. HEK293-GIRK2 thallium flux, Thallos fluorescence. P48051. 63,000 compounds, 0.05% hits. calls only for hits at 25 µM;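 active = among the strongest 0.2% of first-round signals and kept after retests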;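 note: first round at about 10 µM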
Target sequence (P48051 whole entry, looked up): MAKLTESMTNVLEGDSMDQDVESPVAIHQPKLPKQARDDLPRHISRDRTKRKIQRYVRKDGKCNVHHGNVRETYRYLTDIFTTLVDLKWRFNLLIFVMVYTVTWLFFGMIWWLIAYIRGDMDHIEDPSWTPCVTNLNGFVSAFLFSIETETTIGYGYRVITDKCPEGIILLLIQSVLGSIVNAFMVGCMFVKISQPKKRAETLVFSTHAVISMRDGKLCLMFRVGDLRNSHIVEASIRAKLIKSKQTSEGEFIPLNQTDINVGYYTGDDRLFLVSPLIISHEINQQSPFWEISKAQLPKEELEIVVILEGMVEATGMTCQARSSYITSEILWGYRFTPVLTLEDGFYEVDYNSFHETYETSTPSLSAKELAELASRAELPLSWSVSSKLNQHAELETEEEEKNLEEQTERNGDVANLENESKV
Calls only; i = inactive; + = active, no number. A portion of the library, so the mix of outcomes need not match the whole.

SMILES	GIRK2 act
O=C(c1cc(=O)c2ccccc2o1)N1CCCC(c2nnc(-c3ccccc3F)s2)C1 (configuration not stated)	i
COc1c(C)cc(S(=O)(=O)NCCn2nc(-c3ccc(F)cc3)ccc2=O)c(C)c1C	i
COc1ccc(F)cc1S(=O)(=O)NCCn1nc(-c2ccccc2)ccc1=O	i
Cc1ccc(S(=O)(=O)N(C)CCCC(=O)n2cc(C)c(C)n2)cc1	i
COc1ccc(S(=O)(=O)Nc2ccc3c(c2)CCCN3S(=O)(=O)c2ccccc2)cc1F	i
CS(=O)(=O)c1ccc2nc(N(Cc3ccco3)C(=O)C3CCCCC3)sc2c1	+
O=C(CN1CCCC(COCc2ccccc2)C1)Nc1ccc(Br)cc1 (configuration not stated)	i
Cc1nc(C)c(C(=O)C2=C(O)C(=O)N(CCN3CCOCC3)C2c2ccccc2)s1 (configuration not stated)	i
CO[C@H]1/C=C/[C@@](C)(O)CCC(=O)O[C@H](C)[C@@H](C)CC/C=C/1C	i
COc1ccccc1NC(=O)c1c(O)c2ccccc2n(-c2ccccc2)c1=O	i
Cc1cc(=O)[nH]c(-n2nc(C3CC3)cc2NC(=O)C(=O)c2c[nH]c3ccccc23)n1	i
O=C(CSc1nc2ccccc2o1)N1CCC(Oc2cnccn2)CC1	i
COc1cc(OC)cc(C(=O)N2CCN(CC(O)C3CC3)CC2)c1 (configuration not stated)	i
CC(C)Sc1ccc(CC(=O)Nc2ncc(C#N)s2)cc1	i
O=C(Cn1c(=O)oc2ccc(Cl)cc21)N1CCCc2ccccc21	i
COc1ccc(-c2nonc2NC(=O)C(C)Oc2ccc(F)cc2)cc1 (configuration not stated)	i
Cc1cccc2sc(N3CC(OC(=O)c4cc(C5CC5)on4)C3)nc12	i
O=[N+]([O-])c1cc(-c2nc3nc4ccccc4nc3n2CC2CCCO2)cc([N+](=O)[O-])c1 (configuration not stated)	i
COc1cc(OC)cc(C(=O)NCC2(CO)CC2)c1	i
Cc1cc(NC(=O)C2CC2)n(-c2nc3c(cnn3-c3cccc(Cl)c3)c(=O)[nH]2)n1	i
COCCN1CCC(NC(=O)COc2cccc(OC)c2)CC1	i
O=C(NCC1(O)CCOc2ccccc21)C(=O)Nc1ccc(OC(F)(F)F)cc1 (configuration not stated)	i
COCC(=O)Nc1ccc(C)c(N2CCCC2=O)c1	i
CC(Cc1ccco1)NC(=O)CC1CCCC1 (configuration not stated)	i
COc1ccccc1CNC(=O)Cn1c(=O)nc(-c2ccccc2)c2ccccc21	i
CC(C)c1ccc(CNC(=O)Cn2c(=O)c3oc4ccccc4c3n(C)c2=O)cc1	i
Cc1ccccc1Cn1c(=O)c2c(nc3n(CCCl)c(C)c(C)n23)n(C)c1=O	i
CSc1cccc(NC(=O)CSC2=NNC3C4CC(c5ccccc5)NN4C=CN23)c1 (configuration not stated)	i
NC(=O)c1ccc(NC(=O)Cn2nc(-c3ccc(F)cc3)c3sc(N4CCCC4)nc3c2=O)cc1	i
C=CCOC(=O)C1=C(C)NC(=O)NC1c1ccc(Br)cc1 (configuration not stated)	i
O=C(/C=C/c1ccccc1)N1CCC(COCc2ccc(F)cc2)CC1	i
CC(=O)c1cccc(NC(=O)CCCCCn2cnc3ccccc3c2=O)c1	i
COc1ccc2nc(CN3CCN(CC(=O)N4CCCC4)CC3)[nH]c2c1	i
Cc1nc2cc(NC(=O)C3CCN(S(=O)(=O)c4ccc(F)cc4)CC3)ccc2s1	i
O=C(Nc1cccc(OC(F)F)c1)C1COCC(=O)N1Cc1cccs1 (configuration not stated)	i
Cc1cn2c3c(=O)n(CC(N)=O)c(=O)n(C)c3nc2n1C1CCCCC1	i
Cn1c(=O)[nH]c(=O)c2c1nc(N1CCc3ccccc3C1)n2CC(=O)O	i
OCCc1nc2ccccc2n1Cc1ccccc1	i
COC(=O)c1ccc(NC(=O)Cn2ncn3nc(-c4ccc(F)cc4)cc3c2=O)cc1	i
COC(=O)Cn1c(=O)c2c(nc3n2CCCN3c2ccc(C)cc2C)n(C)c1=O	i
CCCCC[C@H](O)/C=C/[C@@H]1[C@@H](C/C=C\CCCC(=O)O)[C@@H](O)C[C@H]1O	i
CCN(Cc1ccccc1)C(=O)Cn1c(N2CCCC2)nc(C)cc1=O	i
O=S(=O)(NCC1CCN(S(=O)(=O)c2cccnc2)CC1)c1c(F)cccc1F	i
COC(=O)Cn1c(C(C)(C)C)cn2c3c(=O)n(C)c(=O)n(C)c3nc12	i
Cc1nc(C(=O)Nc2ccc(S(N)(=O)=O)cc2)cc(-n2cccn2)n1	i
Cc1cccc(-c2[nH]ncc2-c2ccc3ncccc3n2)n1	i
COc1ccc(NC(=O)Cn2c3ccc(C)cc3c3ncn(Cc4nc(C)no4)c(=O)c32)cc1OC	i
COC(=O)N1CCC(CNC(=O)c2ccc(Br)o2)CC1	i
CCCS(=O)(=O)N1CCCc2cc(NS(=O)(=O)c3cc(CC)ccc3OC)ccc21	i
Cc1cc(C)n(CCNC(=O)c2nc3ccccc3s2)n1	i
Cn1nc(-c2ccc(F)cc2)cc1C(=O)N(Cc1ccsc1)Cc1ccco1	i
COc1ccc(-c2noc(CSc3nc4ccsc4c(=O)n3CC(C)C)n2)cc1OC	i
CS(=O)(=O)C1CCN(C(=O)NCc2cccs2)C1 (configuration not stated)	i
O=C1Cc2cc(NS(=O)(=O)/C=C/c3ccccc3)ccc2N1	i
CCCCn1cc(S(=O)(=O)c2cc(C)ccc2C)c(=O)c2cc(F)c(N3CCCC3)cc21	i
CSc1cccc(-n2ccc(=O)c(-c3nc(-c4ccc(OC(F)(F)F)cc4)no3)n2)c1	i
Cc1noc(C2CC(=O)N(Cc3ccco3)C2)n1 (configuration not stated)	i
COc1nn(C)cc1C(=O)Nc1ccc(C(=O)NCc2cccs2)cc1	i
CC1CCCN(c2nccn3c(=O)n(CC(=O)Nc4ccc(F)cc4F)nc23)C1 (configuration not stated)	i
O=C(NCc1ccccc1)N1CCN(CC(O)c2ccco2)CC1 (configuration not stated)	i

New compounds follow:
SMILES	GIRK2 act
CCOc1ccc(NC(=O)c2ccc(Nc3nn4c(=O)c5ccccc5nc4s3)cc2)cc1	i
C=CCn1c(=O)c2ccccc2n(Cc2nc(-c3ccc(OC(C)C)cc3)no2)c1=O	i
CCOC(=O)N1CCN(C(=O)Cn2c(-c3ccccn3)nc3ccccc32)CC1	i
Cc1ccc2nc(N(CCN3CCOCC3)C(=O)c3ccc([N+](=O)[O-])o3)sc2c1	i
Cc1nc(-c2cccnc2)sc1C(=O)O	i
CS(=O)(=O)N1CCC(C(=O)N(Cc2cnc3ccccn23)C2CC2)CC1	i
CCOc1cc(S(=O)(=O)NCc2ccco2)c(OCC)cc1C	i
COc1cccc2sc(N(CCN(C)C)C(=O)c3cc(C)nn3C)nc12	i
COc1nn(C)cc1C(=O)NCC1(O)CCc2ccccc2C1 (configuration not stated)	i
c1csc(CN2CC(c3nc(-c4cnccn4)no3)C2)c1	i
CCOc1ccccc1-c1noc(Cn2cnc3c(cnn3-c3ccc(C)c(Cl)c3)c2=O)n1	i
COc1cccc(N2CCN(C(=O)c3ccc4c(=O)nc5c(-c6ccccc6)n[nH]n5c4c3)CC2)c1	i
COc1ccc2nc(OC3CCN(C(=O)c4ccccc4Cl)CC3)sc2c1	i
Cn1c(CN2CCN(S(=O)(=O)c3cccnc3)CC2)nc2ccccc21	i
FC(F)(F)c1cccc(-n2c(-c3ccccc3)c[nH]c2=S)c1	i
COCCn1c(-n2nc(C)cc2C)nc2c1c(=O)n(CCc1ccccc1)c(=O)n2C	i
C=C(C)Cn1c(=O)c2c(nc3n(-c4ccccc4O)c(C)cn23)n(C)c1=O	i
Cc1cccc(C)c1NC(=O)Cn1nc(-c2ccc(F)cc2)c2sc(N3CCOCC3)nc2c1=O	i
Cc1nc(-c2noc(-c3ccncc3)n2)cn1CC(=O)Nc1ccc(Cl)cc1	i
O=C(NCc1nc(-c2ccccc2)no1)c1csc(Nc2ccccc2)n1	i

For convenience, part of the list above.
SMILES	GIRK2 act
CCOc1ccc(NC(=O)c2ccc(Nc3nn4c(=O)c5ccccc5nc4s3)cc2)cc1	i
C=CCn1c(=O)c2ccccc2n(Cc2nc(-c3ccc(OC(C)C)cc3)no2)c1=O	i
CCOC(=O)N1CCN(C(=O)Cn2c(-c3ccccn3)nc3ccccc32)CC1	i
Cc1ccc2nc(N(CCN3CCOCC3)C(=O)c3ccc([N+](=O)[O-])o3)sc2c1	i
Cc1nc(-c2cccnc2)sc1C(=O)O	i
CS(=O)(=O)N1CCC(C(=O)N(Cc2cnc3ccccn23)C2CC2)CC1	i
CCOc1cc(S(=O)(=O)NCc2ccco2)c(OCC)cc1C	i
COc1cccc2sc(N(CCN(C)C)C(=O)c3cc(C)nn3C)nc12	i
COc1nn(C)cc1C(=O)NCC1(O)CCc2ccccc2C1 (configuration not stated)	i
c1csc(CN2CC(c3nc(-c4cnccn4)no3)C2)c1	i
CCOc1ccccc1-c1noc(Cn2cnc3c(cnn3-c3ccc(C)c(Cl)c3)c2=O)n1	i
COc1cccc(N2CCN(C(=O)c3ccc4c(=O)nc5c(-c6ccccc6)n[nH]n5c4c3)CC2)c1	i
COc1ccc2nc(OC3CCN(C(=O)c4ccccc4Cl)CC3)sc2c1	i
Cn1c(CN2CCN(S(=O)(=O)c3cccnc3)CC2)nc2ccccc21	i
FC(F)(F)c1cccc(-n2c(-c3ccccc3)c[nH]c2=S)c1	i
COCCn1c(-n2nc(C)cc2C)nc2c1c(=O)n(CCc1ccccc1)c(=O)n2C	i

(continued)
SMILES	GIRK2 act
O=C(NCCCS(=O)(=O)N1CCc2ccccc2C1)c1c(F)cccc1Cl	i
O=C(C1CCC1)N1CCN(CC(O)c2cccs2)CC1 (configuration not stated)	i
O=C(/C=C/C1=Cc2ccccc2OC1)Nc1cccc([N+](=O)[O-])c1	i
O=C(Cc1csc(-n2cccc2)n1)NCc1nc2ccccc2[nH]1	i
COc1cc(S(=O)(=O)N2CCN(c3ccc(F)cc3)CC2)c(C)cc1Br	i
O=C(NCC1CCCO1)c1cccnc1-c1nc2ccccc2s1 (configuration not stated)	i
O=C(Cn1cnc2ccccc21)Nc1ccc(-c2ccn[nH]2)cc1	i
CCc1ccc(NCc2cc3cc4c(cc3n(CC(=O)NCCc3ccccc3)c2=O)OCCO4)cc1	i
Cc1ccc(-n2nc(C)c3c(-c4cccs4)c(C#N)c(N)nc32)cc1	i
NC(=O)c1ccccc1NC(=O)c1csc(Nc2ccc(OC(F)F)cc2)n1	i
O=C(NCCOc1ccccc1)NCC1CCN(c2ncccn2)CC1	i
CCOc1ccc(-c2csc(-n3nc(C)cc3NC(=O)c3ccc(Br)o3)n2)cc1	i
N#Cc1ccc(OC2CCN(C(=O)Nc3ccc(C(F)(F)F)cc3)CC2)nc1	i
CCCn1c(=O)c2c(nc3n(C(C)C)c(C)cn23)n(C)c1=O	i
O=C(Nc1ccc(Cl)c(N2CCCS2(=O)=O)c1)Nc1cccs1	i
Cc1cc(C)cc(N2N=NC3C(=O)N(c4ccc5c(c4)CCC5)C(=O)C32)c1 (configuration not stated)	i
CCc1ccc(-n2c(C)c(C)n3c4c(=O)n(CCN5CCOCC5)c(=O)n(C)c4nc23)cc1	i
COc1ccc(NC(=O)c2n[nH]nc2Nc2ccc(F)cc2)cc1OC	i
O=C1NC(c2cccc([N+](=O)[O-])c2)=CCN1c1ccccc1O	i
COc1cc(NC(=O)CCc2csc(NC(=O)NC3CCCCC3)n2)cc(OC)c1OC	i
CCc1cccc(C)c1NC(=O)Cn1c(=O)n(CC(N)=O)c(=O)c2oc3ccccc3c21	i
CCOC(=O)c1ccc(NC(=O)Cn2cc(-c3ccccc3)c3ncn(CCCOC)c(=O)c32)cc1	i
COc1ccc(CCNC(=O)N2CCN(CC(=O)c3cccs3)CC2)cc1	i
COc1ccccc1NC(=O)CSc1nccn(-c2ccc(Cl)cc2)c1=O	i
COc1ccc(CCC(=O)Nc2cc(-n3cccn3)ncn2)cc1	i
CCOC(=O)Cc1csc(NC(=O)c2c3c(nn2C2CCS(=O)(=O)C2)CCC3)n1 (configuration not stated)	i
CCC(=O)Oc1ccc2c(c1)O/C(=C\c1ccc(C(=O)OC)cc1)C2=O	i
CCCCc1ccc(NC(=O)Cn2nc(C3CCCN(S(C)(=O)=O)C3)n(C)c2=O)cc1 (configuration not stated)	i
O=C(Nc1sc2c(c1-c1nc3ccccc3s1)CCCC2)C1CC1	i
COc1ccccc1N(C)S(=O)(=O)c1ccc(Cl)cc1	i
Cn1ccnc1SCC1CCN(C(=O)C2(c3cccs3)CCCC2)CC1	i
CSc1ccc(CNC(=O)c2snc(-c3ccccn3)c2NC(=O)C(C)C)cc1	i
COCCn1c(C(=O)NCC(=O)OC(C)C)cc2c(=O)n(C)c(=O)n(C)c21	i
CCOC(=O)CNC(=O)CSC1=NS(=O)(=O)c2ccccc2N1	i
Cn1cc(C2=C(c3c4n(c5ccccc35)CCC(CN)CC4)C(=O)NC2=O)c2ccccc21 (configuration not stated)	i
COc1cccc(-c2noc(CN3C(=O)COc4ccc(C)cc43)n2)c1OC	i
CCOC(=O)c1c(NCc2cccc(OC)c2)c2ccc(Cl)cc2[nH]c1=O	i
CCC(=O)Nc1ccc(S(=O)(=O)N2CCN(CCn3nc(-c4ccccc4)ccc3=O)CC2)cc1	i
O=C(NC1CC(O)C(CO)C1)C1CCC1 (configuration not stated)	i
Cc1ccc(-c2csc(-n3nc(C)cc3NC(=O)COc3ccccc3F)n2)cc1	i
Cc1nc(-c2ccco2)sc1CNC(=O)C(c1ccccc1)c1ccccc1	i
COc1ccccc1N1CCN(CCNC(=O)CCc2ccccc2)CC1	i
COc1ccc(NC(C)=O)cc1NC(=O)c1cn(C)nn1	i
Cc1ccc(Cn2nc3n(C(C)C)c(=O)c4ccc(C(=O)NC5CCCC5)cc4n3c2=O)cc1	i
O=C(C1CCCCC1)N1CCN(CC(O)c2cccs2)CC1 (configuration not stated)	i
C=CCOCC(O)Cn1c(NCc2ccccc2)nc2c1c(=O)n(C)c(=O)n2C (configuration not stated)	i
